Screens: PubChem BioAssay, National Center for Advancing Translational Sciences (NCATS)
miR-21 reporter = qHTS Assay for Modulators of miRNAs and/orActivators of miR-21; Potency, µM (top dose mostly 38.3 µM), without a hit: at the top dose reporter change, positive = more light; HeLa miR-21 FLuc reporter, luciferase, 48 h; AID 2288, 2010; 340,000 tested, under 10 active; active = well fitted rising curve with a large enough effect; inconclusive = small, poorly fitted or top-dose-only effect; inactive = no such curve, though single readings can be large or run the other way;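 also: % of control where 0% means no effect; miR-21 action dims this reporter so a rising signal means less miR-21 action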
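Compounds were titrated across several concentrations (up to approximately 40 uM) and incubated 48 hours with HeLa miR-21-FLuc reporter cells (miR-21 target sequence downstream of FLuc, endogenous miR-21). Readout was firefly luciferase luminescence after lytic detection reagent.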
GLA inh pH 4.5 = qHTS Assay for Inhibitors of Human alpha-Galactosidase at pH 4.5; purified enzyme, 4-MU-alpha-Gal fluorescence, pH 4.5; activity change, negative = inhibition, % at 105 µM; 230,000 tested, under 10 active; AID 1467, 2008; inconclusive = small, poorly fitted or top-dose-only inhibition, or a rising curve; inactive = flat fitted curve, though single readings scatter; no compound was filed as active;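 also: 0% = full activity with enzyme and -100% = basal without enzyme; dose as in the result columns while the protocol names 77 µM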
Target sequence (P06280 whole entry, looked up): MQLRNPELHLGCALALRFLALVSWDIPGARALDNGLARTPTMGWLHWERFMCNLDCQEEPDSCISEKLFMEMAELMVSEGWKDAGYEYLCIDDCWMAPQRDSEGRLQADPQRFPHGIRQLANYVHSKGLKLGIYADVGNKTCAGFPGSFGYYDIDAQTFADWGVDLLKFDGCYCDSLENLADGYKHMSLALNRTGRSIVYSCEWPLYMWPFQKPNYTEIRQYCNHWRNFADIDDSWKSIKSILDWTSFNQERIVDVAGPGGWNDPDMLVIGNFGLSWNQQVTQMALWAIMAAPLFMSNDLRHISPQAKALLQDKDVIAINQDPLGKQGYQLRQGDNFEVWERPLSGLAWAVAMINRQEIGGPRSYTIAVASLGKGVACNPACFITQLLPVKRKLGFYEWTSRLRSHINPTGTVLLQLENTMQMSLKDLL
Rango release inh = qHTS Assay for Inhibitors of RanGTP induced Rango (Ran-regulated importin-beta cargo) - Importin beta complex dissociation. Snurportin-1 (Homo sapiens) + GTP-binding nuclear protein Ran (Homo sapiens) + Importin …. Biochemical FRET Rango-importin beta, RanGTP-induced dissociation. Potency, µM (doses to about 46.1 µM), without a hit: at the highest dose activity change, negative = inhibition. actives 0.071% (n = 340,000). AID 540253, 2011; active means falling FRET ratio curve, often poorly fitted, with flat reads before Ran was added; inconclusive means other falling curves, or compound fluorescence or quenching; inactive means flat or rising ratio curve;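 also: potency is read from the fitted curve at half-maximal effect; % of control where 0% means no effect; nearly all actives have a fitted effect of over 45% in size; -100% = wells without RanGTP and RCC1; the record marks most hits as doubtful in a second field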
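Compounds preincubate 5 min with complex of recombinant Rango and importin beta in PBS with 1 mM DTT. Ran (0.6 uM) loaded with 2 mM GTP plus 0.2 uM RCC1 starts dissociation; FRET is recorded 45 min later.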
Rango complex inh = qHTS Assay for Inhibitors of Rango (Ran-regulated importin-beta cargo) - Importin beta complex formation. Importin subunit beta-1 (Homo sapiens), Q14974. Rango CFP/YFP FRET sensor + importin beta, 45 min. Potency, µM (titrated, usually from 92.2 µM), for the others: top-dose inhibition of complex formation. actives 0.031% (n = 340,000). AID 540263, 2011; active = rising FRET ratio curve, often small or poorly fitted; inconclusive = mostly compound fluorescence or quenching in the first reads; inactive = flat curves in all reads;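 also: potency is read from the fitted curve at half-maximal effect; 0% = DMSO wells and 100% = buffer wells lacking importin beta; nearly all actives have a fitted effect of over 15% in size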
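FRET biosensor Rango (snurportin 1 IBB between N-terminal EYFP and C-terminal Cerulean), 50 nM in PBS/1 mM DTT/0.02% Tween-20/0.1% BSA, preincubated 5 min RT with compound; 0.125 microM importin beta added, 45 min RT, CFP/YFP FRET ratio read.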
* hit, by the source's call; u = inconclusive; x = no result given; [ ] = dose if it differs, or a comment. These rows are one share of the data; count on the stated rates, not on these rows.

A first look (six entries):
item	Rango release inh	Rango complex inh	miR-21 reporter	GLA inh pH 4.5	structure
1	31%	-3.5%	-18%	4	Cc1ccc(SCc2nc(N)nc(Nc3ccccc3C)n2)c(C)c1
2	4%	0.0%	0%	-3	COc1ccc(/C=N/Nc2ncc(C(F)(F)F)cc2Cl)c(OC)c1OC
3	-4%	-2.2%	6%	x	C=CCC1(CC=C)CCCN1C(=O)c1cc(COc2ccc(C)nc2)on1
4	3%	3.9%	-6%	9	COC(=O)C1=C(N)Oc2c(oc(CO)cc2=O)C1c1ccc(F)cc1 (stereo not given)
5	-1%	2.5%	-3%	1	CCOC(=O)C(C(=O)Nc1ccccc1)C1CCCCC1 (stereo not given)
6	-5%	3.8%	-19%	-4	CC(=O)c1cccc(-n2c(CCC(=O)O)ccc2-c2cccs2)c1

Results, repeating the preview:
item	Rango release inh	Rango complex inh	miR-21 reporter	GLA inh pH 4.5	structure
1	31%	-3.5%	-18%	4	Cc1ccc(SCc2nc(N)nc(Nc3ccccc3C)n2)c(C)c1
2	4%	0.0%	0%	-3	COc1ccc(/C=N/Nc2ncc(C(F)(F)F)cc2Cl)c(OC)c1OC
3	-4%	-2.2%	6%	x	C=CCC1(CC=C)CCCN1C(=O)c1cc(COc2ccc(C)nc2)on1
4	3%	3.9%	-6%	9	COC(=O)C1=C(N)Oc2c(oc(CO)cc2=O)C1c1ccc(F)cc1 (stereo not given)
5	-1%	2.5%	-3%	1	CCOC(=O)C(C(=O)Nc1ccccc1)C1CCCCC1 (stereo not given)
6	-5%	3.8%	-19%	-4	CC(=O)c1cccc(-n2c(CCC(=O)O)ccc2-c2cccs2)c1
7	-13%	0.0%	x	x	CCOC(=O)N1CCN(C(=O)CSc2nc(=O)n3cccc(C)c3n2)CC1
8	17%	1.6%	x	x	CC1CCC2(CC1)NC(=O)N(CC(=O)Nc1cccnc1Cl)C2=O (stereo not given)
9	12%	-2.0%	x	x	CCOc1ccccc1N1CC(C(=O)Nc2cc(S(=O)(=O)N3CCOCC3)ccc2OC(C)C)CC1=O (stereo not given)
10	1%	-1.3%	2%	0	CCCNC(=O)CSc1nnc(C)s1
11	-4%	-3.4%	x	x	CC(=O)c1ccccc1NC(=O)CSCc1nc2sc(C)c(C)c2c(=O)[nH]1
12	9%	5.2%	25%	1	O=C(NC1CC1)c1ccc(-c2nc3ccccc3s2)s1
13	u	u	-17%	-2	[2H]c1c([2H])c([2H])c(C(=O)c2sc(N3CCCCCC3)nc2-c2ccccc2)c([2H])c1[2H]
14	-1%	2.6%	-1%	x	Cc1ccccc1NS(=O)(=O)c1cc2c3c(c1)CC(=O)N3CCC2
15	1%	-0.5%	-1%	x	O=C(CCC(=O)n1ncc2ccccc21)N1CCCCC1
16	2%	3.1%	-22%	14	COC(=O)c1ccc2nc(-c3ccc(S(C)(=O)=O)cc3)cn2c1
17	5%	0.5%	-1%	0	COC(=O)c1ccc(CNC(=O)/C=C/c2cc([N+](=O)[O-])ccc2OC(F)F)cc1
18	-13%	u	-7%	3	CSc1ccc(-c2c(C#N)c(N)nc3c2c(C)nn3-c2ccccc2)cc1
19	-11%	-6.9%	3%	5	COC(=O)CCC(=O)Nc1ccc(OC)cc1
20	6%	2.3%	26%	-1	COc1cc2c(cc1Cl)/C(=C\CCN(C)C)c1ccccc1S2
21	3%	-2.9%	u	5	CCCCCCCCCn1c2c(c(=N)c3c1CCC3)CCCC2
22	-5%	-0.6%	14%	x	COc1ccc(Cl)cc1S(=O)(=O)N1CCCC(C(=O)NCc2ccccc2)C1 (stereo not given)
23	-7%	6.8%	15%	-9	Cc1nc(N)c(CC(Br)CBr)c(Cl)n1 (stereo not given)
24	0%	-0.7%	-1%	x	CN(CCCNC(=O)c1ccc(CS(=O)c2ccc(Br)cc2)o1)Cc1ccccc1 (stereo not given)
25	-5%	0.5%	-53%	-7	Fc1cccc(Cl)c1CSc1ccc(-c2cccnc2)nn1
26	5%	4.8%	-23%	-17	CN(C)c1ccc(N2CN=C3SCC(=O)N3C2)cc1
27	-2%	-4.8%	-5%	5	CCc1nnc(NC(=O)CSc2nnc(CNc3ccc(F)cc3)n2C2CCCCC2)s1
28	10%	0.4%	1%	-5	O=S(=O)(Nc1ccccc1O)c1ccc(Cl)nc1
29	0%	-5.1%	-6%	x	COc1ccc(NC(=O)NNC(=O)c2ccc3ccccc3c2O)cc1OC
30	8%	-1.3%	x	x	O=c1[nH]c2cnn(-c3ccccc3)c2c(=O)n1O
31	-11%	-0.3%	3%	-1	COc1cc(/C=N/NC(=O)CCN2CCCCC2)ccc1O
32	9%	-0.5%	-4%	-12	N#CCCN(Cc1cccs1)C(=O)Nc1ccc(F)cc1
33	-1%	-1.8%	-9%	x	Cc1ccc(NC(=O)CCNS(=O)(=O)c2cccc3nsnc23)cc1F
34	19%	-2.9%	-7%	7	O=C(/C=C/c1ccc2c(c1)OCO2)NCc1cn2cc(Cl)ccc2n1
35	8%	-0.5%	25%	-7	Cc1nc2ccccc2c2oc(C(=O)NCc3ccccn3)cc12
36	44%	-0.3%	-2%	9	CCOc1ccc(Cl)cc1/C=N/NC(N)=O

Another view of 5 compounds above:
Values in the order – Rango release inh	Rango complex inh	miR-21 reporter	GLA inh pH 4.5
#26 CN(C)c1ccc(N2CN=C3SCC(=O)N3C2)cc1
→ 5%	4.8%	-23%	-17
#27 CCc1nnc(NC(=O)CSc2nnc(CNc3ccc(F)cc3)n2C2CCCCC2)s1
→ -2%	-4.8%	-5%	5
#28 O=S(=O)(Nc1ccccc1O)c1ccc(Cl)nc1
→ 10%	0.4%	1%	-5
#29 COc1ccc(NC(=O)NNC(=O)c2ccc3ccccc3c2O)cc1OC
→ 0%	-5.1%	-6%	x
#30 O=c1[nH]c2cnn(-c3ccccc3)c2c(=O)n1O
→ 8%	-1.3%	x	x

(list continues)
item	Rango release inh	Rango complex inh	miR-21 reporter	GLA inh pH 4.5	structure
37	-2%	-0.8%	x	x	Cc1c(Cl)cccc1Nc1n[nH]c(=S)s1
38	45%	-3.6%	-23%	-1	CC(C)N1CCC(NC(=O)Nc2ccc3c(c2)OCO3)CC1
39	17%	3.7%	-3%	-21	COC(=O)N1CCN(c2ccc(Cl)c(Cl)c2)CC1
40	-1%	-2.5%	-2%	3	Cc1cccc(OCc2nnc(NC(=O)c3cccs3)s2)c1
41	0%	-2.8%	-12%	0	Cc1cc(NC(=O)c2nn3cccnc3c2Cl)no1
42	6%	-0.1%	0%	x	Cc1ccc(OC(=O)CN2C(=O)c3ccccc3C2=O)cc1C
43	1%	-0.6%	0%	-7	O=C(NCc1ccco1)/C(=C\c1ccco1)NC(=O)c1ccc(Br)o1
44	1%	4.5%	4%	-4	CCC(=O)Nc1ccc(NC(=S)NC(=O)/C=C/c2ccccc2)cc1
45	21%	6.8%	u	-5[21.1 µM]	COc1ccc(NC(=S)N(CCCN2CCCC2)Cc2cccn2Cc2ccc(Cl)cc2)cc1Cl
46	34%	6.2%	-4%	-6	COc1ccc(NC(=O)COC(=O)C2CCC(C(C)(C)C)CC2)c([N+](=O)[O-])c1 (stereo not given)
47	0%	0.3%	2%	-2	C=C(C)CC1N(c2cccc(OC)c2)C(=O)[C@@H]2C(C(=O)O)[C@H]3C=C[C@@]12O3 (stereo not given in full)
48	1%	4.3%	x	x	COc1ccc(S(=O)(=O)N2CCN(CC(=O)NCCc3cccs3)CC2)cc1

Two entries drawn at random from those above:
item	Rango release inh	Rango complex inh	miR-21 reporter	GLA inh pH 4.5	structure
28	10%	0.4%	1%	-5	O=S(=O)(Nc1ccccc1O)c1ccc(Cl)nc1
34	19%	-2.9%	-7%	7	O=C(/C=C/c1ccc2c(c1)OCO2)NCc1cn2cc(Cl)ccc2n1

(next part)
item	Rango release inh	Rango complex inh	miR-21 reporter	GLA inh pH 4.5	structure
49	-5%	-1.8%	-15%	6	CCOC(=O)c1ccc(NC(=O)Nc2cccc(C)n2)cc1
50	10%	u	-2%	3	Cc1c(Cc2ccccc2)c(=O)oc2cc(OCc3nn[nH]n3)ccc12
51	1%	-2.9%	x	x	COc1ccc(C(=O)c2ccccc2CN2C(=O)c3ccccc3C2=O)cc1
52	3%	-0.2%	21%	-9	Cc1cc(NC(=O)CSc2nc(-c3ccco3)cc(C(F)(F)F)n2)no1
53	-3%	0.3%	-5%	10	COC(=O)c1[nH]c2cc(C)ccc2c1NC(=O)CN1CCN(C(=O)c2ccco2)CC1
54	-15%	5.1%	7%	x	CCCCOc1ccc(C(=O)Nc2cccc(-n3cnnn3)c2)cc1OC
55	24%	-0.1%	9%	11	CC(=O)c1cccc(NC(=O)c2ccc3c(=O)n4c(nc3c2)CCCCC4)c1
56	22%	u	-7%	-2	COCCNC(=O)c1onc(CSc2cccc(Cl)c2)c1C(=O)O
57	-2%	1.8%	-20%	-2	CCOC(=O)C(=O)C1=C(N2CCOCC2)/C(=C\c2ccc(F)cc2)CC1
58	31%	0.5%	1%	-18	Cc1c(-c2cccc(Cl)c2)nc2ccccc2c1C(=O)OCC(=O)N(C)C1CCS(=O)(=O)C1 (stereo not given)
59	-18%	3.6%	-15%	3	COC(=O)c1cc(C#N)c(=O)[nH]c1C
60	0%	-0.3%	-25%	-9	Oc1ccc(Br)cc1-c1ccn[nH]1

Values in list order from the entries so far:
Nos. 56 to 59 in miR-21 reporter read -7%, -20%, 1%, -15%

Going on with the list.
item	Rango release inh	Rango complex inh	miR-21 reporter	GLA inh pH 4.5	structure
61	9%	0.1%	x	x	CCn1c(C)nc2cc(C(=O)NN=Cc3ccc([N+](=O)[O-])cc3)ccc21
62	-2%	3.4%	-4%	-12	COC(=O)CC/C(=N/Nc1ccc(Cl)c(Cl)c1)C(=O)OC
63	18%	0.7%	2%	8	CC(C)Cn1c(-c2ccccc2)nc(=S)c2c1CCCC2
64	2%	1.0%	-2%	1	O=C(Nc1ccccc1C(=O)N1CCCC1)c1cccc(S(=O)(=O)N2CCCCCC2)c1
65	-9%	-0.9%	-1%	12	O=C(/C=C/c1ccc(Br)o1)NCCCN1CCOCC1
66	-12%	0.3%	x	x	COc1cc(OC)cc(C(=O)NCC(=O)NCc2ccccn2)c1
67	11%	-2.9%	-4%	-23	CC(CCc1ccccc1)NS(=O)(=O)c1ccccc1 (stereo not given)
68	-9%	-4.3%	-13%	x	Clc1ccc(NCc2cccnc2)cc1
69	1%	2.0%	-34%	-3	O=C(Cc1ccccc1)Nc1ccc(SC(F)F)cc1
70	x	x	0%	1	COc1ccc(C2C(C(=O)c3cc4cccc(OC)c4o3)=C(O)C(=O)N2CCCN(C)C)cc1OC (stereo not given)
71	1%	-0.5%	-5%	-8	CC(C)N1CC(C(=O)Nc2ccc(Br)c(Cl)c2)CC1=O (stereo not given)
72	-19%	0.0%	x	x	CNC[C@@H]1Oc2c(NC(=O)Nc3ccc(F)cc3)cccc2C(=O)N([C@H](C)CO)C[C@@H]1C
73	-3%	-1.1%	-1%	-5	O=C(CCS(=O)(=O)c1cccc2nsnc12)NCc1ccccc1
